# GLA inh pH 4.5 – inhibitors of human alpha-galactosidase A at pH 4.5 | purified enzyme, 4-MU-alpha-Gal fluorescence, pH 4.5 | activity change, negative = inhibition, % at 105 µM | 230,000 tested, under 10 active | AID 1467; inconclusive = small, poorly fitted or top-dose-only inhibition, or a rising curve; inactive = flat fitted curve, though single readings scatter; no compound was filed as active;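 also: 0% = full activity with enzyme and -100% = basal without enzyme; dose as in the result columns while the protocol names 77 µM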
# Rango-impB inh – prevents formation of the Rango-importin beta complex. Rango CFP/YFP FRET sensor + importin beta, 45 min. Q14974. AID 540263. Potency, µM (titrated, usually from 92.2 µM), for inactives: at the top dose inhibition of complex formation. actives 0.031% (n = 340,000); active = rising FRET ratio curve, often small or poorly fitted; inconclusive = mostly compound fluorescence or quenching in the first reads; inactive = flat curves in all reads;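 also: potency is read from the fitted curve at half-maximal effect; 0% = DMSO wells and 100% = buffer wells lacking importin beta; nearly all actives have a fitted effect of over 15% in size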
# Target sequence (Q14974 whole entry, looked up): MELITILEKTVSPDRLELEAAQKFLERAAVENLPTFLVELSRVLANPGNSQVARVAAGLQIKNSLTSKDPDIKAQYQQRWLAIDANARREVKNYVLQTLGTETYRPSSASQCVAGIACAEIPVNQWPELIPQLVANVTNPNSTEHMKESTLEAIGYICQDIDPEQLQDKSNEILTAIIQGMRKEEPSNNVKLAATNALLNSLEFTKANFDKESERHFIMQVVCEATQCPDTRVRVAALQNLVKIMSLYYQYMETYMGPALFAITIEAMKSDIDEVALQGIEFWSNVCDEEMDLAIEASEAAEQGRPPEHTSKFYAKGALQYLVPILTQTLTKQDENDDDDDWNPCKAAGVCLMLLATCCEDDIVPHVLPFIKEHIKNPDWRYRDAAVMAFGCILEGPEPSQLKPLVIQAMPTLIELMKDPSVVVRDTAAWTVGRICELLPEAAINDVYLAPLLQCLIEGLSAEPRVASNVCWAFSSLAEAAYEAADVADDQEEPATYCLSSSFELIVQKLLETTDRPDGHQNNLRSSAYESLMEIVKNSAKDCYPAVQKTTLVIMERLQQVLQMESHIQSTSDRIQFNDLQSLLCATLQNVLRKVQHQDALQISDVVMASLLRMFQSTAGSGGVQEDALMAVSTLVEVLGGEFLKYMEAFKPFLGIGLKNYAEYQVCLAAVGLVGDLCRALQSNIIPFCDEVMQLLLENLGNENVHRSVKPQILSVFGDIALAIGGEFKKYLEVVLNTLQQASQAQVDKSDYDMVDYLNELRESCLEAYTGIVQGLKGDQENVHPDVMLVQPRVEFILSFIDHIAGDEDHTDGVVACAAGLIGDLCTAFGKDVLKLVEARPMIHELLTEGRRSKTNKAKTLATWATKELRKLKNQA
#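 FRET biosensor Rango (snurportin 1 IBB between N-terminal EYFP and C-terminal Cerulean), 50 nM in PBS/1 mM DTT/0.02% Tween-20/0.1% BSA, preincubated 5 min RT with compound; 0.125 microM importin beta added, 45 min RT, CFP/YFP FRET ratio read.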
# Rango dissoc inh – inhibition of RanGTP-driven Rango-importin beta dissociation; actives 0.071% (n = 340,000); Potency, µM (highest dose often 46.1 µM), inactives show at the highest dose activity change, negative = inhibition; Biochemical FRET Rango-importin beta, RanGTP-induced dissociation; O95149+P62826; active means falling FRET ratio curve, often poorly fitted, with flat reads before Ran was added; inconclusive means other falling curves, or compound fluorescence or quenching; inactive means flat or rising ratio curve;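 also: potency is read from the fitted curve at half-maximal effect; % of control where 0% means no effect; nearly all actives have a fitted effect of over 45% in size; -100% = wells without RanGTP and RCC1; the record marks most hits as doubtful in a second field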
#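 Rango FRET biosensor (snurportin-1 IBB flanked by N-terminal EYFP and C-terminal CFP10) at 0.1 uM, with 0.25 uM importin beta in PBS, 1mM DTT, 0.02% Tween-20, 0.1% BSA. 0.6 uM Ran, 2mM GTP and 0.2 uM RCC1 were then added for 45 min at room temperature. Inhibition read as loss of FRET rise.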
# miR-21 FLuc – miR-21 reporter, rising signal. 340,000 tested, under 10 active. HeLa miR-21 FLuc reporter, luciferase, 48 h. Potency, µM (top dose mostly 38.3 µM), inactives show at the top dose reporter change, positive = more light; active = well fitted rising curve with a large enough effect; inconclusive = small, poorly fitted or top-dose-only effect; inactive = no such curve, though single readings can be large or run the other way;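 also: % of control where 0% means no effect; miR-21 action dims this reporter so a rising signal means less miR-21 action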
#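 Luminescence from a firefly luciferase reporter carrying a miR-21 binding site downstream, stably expressed under a CMV promoter in HeLa cells that make miR-21 endogenously, reports miRNA modulation after 48 h compound exposure up to approximately 40uM final.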
# * marks the source's active call; other numbers are inactive results; ? = inconclusive; · = no result given; & = joins results of further samples. Some of the compounds tested; count on the stated rates, not on these rows.
SMILES,GLA inh pH 4.5,Rango-impB inh,Rango dissoc inh,miR-21 FLuc
C#CCOCCOCCOCCNc1nc(N2CCN(C(=O)[C@H](CC(N)=O)n3cc(C(N)[C@@H](C)CC)nn3)CC2)nc(N2CCN(C(=O)[C@H](CCC(=O)O)n3cc([C@@H](N)CCCCN)nn3)CC2)n1 (some centres not stated),·,5.2%,-2%,·
N#Cc1c(NC(=O)C2CC2)sc2c1CCCCC2,3,0.0%,-6%,-66%
CC(=O)N1CCN=C1SCc1ccccc1,-7,-1.8%,16%,-6%
CCOc1ccccc1NC(=O)C1CCCCN1S(=O)(=O)c1ccccc1 (configuration not stated),·,-1.8%,1%,·
CC(C)c1ccc(NC(=O)c2n[nH]c(=O)c3ccccc23)cc1,5,-3.4%,1%,-37%
COc1ccc2c(c1)C(=O)N1[C@H]3c4cc(Cl)ccc4OC[C@@H]3[C@H](c3ccccc3)[C@]1(C)C(=O)N2,·,-1.0%,-5%,·
CCOCCCNC(=O)CN1C(=O)C(CC)Oc2ccccc21 (configuration not stated),-14,-0.7%,13%,-3%
CCOC(=O)Cc1c(C)nc2c(-c3ccccc3)c(-c3ccccc3)[nH]n2c1=O,-3,4.3%,12%,-2%
CN(C)S(=O)(=O)Oc1cccc(C(=O)Nc2ccc(Cl)cc2)c1,-10,-0.7%,-3%,15%
COc1ccc(C(=O)NNC(=O)c2ccccc2[N+](=O)[O-])cc1[N+](=O)[O-],3,1.3%,14%,-4%
Cc1cc(-c2n[nH]c(=S)n2/N=C/c2ccc(Cl)c([N+](=O)[O-])c2)n[nH]1,-11,5.1%,2%,5%
COc1cccc(NC(=O)CN2CCN(c3nc(-c4cccc(OC)c4)cs3)CC2)c1,-7,-1.5%,0%,0%
NC(=O)CC(NC(=O)c1ccccc1)c1ccc(NCc2ccc(F)c(F)c2)c([N+](=O)[O-])c1 (configuration not stated),·,1.6%,-13%,-4%
CCOC(=O)CN1C(=O)N[C@@H](c2cccc(C(F)(F)F)c2)[C@@H](C(=O)OC)[C@H]1C,7,-3.7%,-7%,·
COc1ccc(CCN(C)C(=O)c2cc(S(=O)(=O)N3CCCCCC3)ccc2OC)cc1OC,·,12%,-2%,·
CCOC(=O)C1CCCN(C(=O)c2cc(Cl)ccc2Cl)C1 (configuration not stated),8,-2.0%,15%,-5%
COc1cc2c(cc1CNC[C@H]1O[C@@H](n3cnc4c(N)ncnc43)[C@H](O)[C@@H]1O)OCO2,·,13%,-17%,·
CN(C)c1ccc(C2NCC(CCl)O2)cc1 (configuration not stated),11,-4.0%,0%,-4%
CCCCCCNC(=O)CCNS(=O)(=O)c1ccc(C)cc1,-3,4.2%,9%,3%
Brc1ccc(OCc2cn3ccccc3n2)cc1,-1,0.5%,0%,-44%
Nn1c(SCC(=O)NCc2ccccc2)nncc1=O,2,-2.3%,35%,-7%
Cc1cccc(C)c1NC(=O)N1CCN(c2nc3ccccc3s2)CC1,-4,4.2%,8%,3%
O=[N+]([O-])c1cc2c(cc1/C=N/NS(=O)(=O)c1ccc(Br)cc1)OCO2,-1,-1.3%,8%,-5%
COc1ccc(S(=O)(=O)Nc2ccccc2C(=O)NCc2cccnc2)cc1,·,?,-3%,0%
CN(CCOc1ccc(-c2ccn(S(=O)(=O)c3cccc4ccccc34)n2)cc1)c1ccccn1,-5,1.7%,-18%,-1%
Cn1c(SCC(=O)NC(C)(C)C)nnc1-c1cccc(NC(=O)c2ccccc2F)c1,0,0.6%,0%,-2%
CCOC(=O)C1=NN(c2ccccc2)C(=O)C1,-18,-0.2%,-1%,-1%
Clc1ccc(-c2nnn(Cc3nc4ccccc4s3)n2)cc1,-1,-0.9%,-18%,-15%
Cc1ccc(NC(=O)CSc2nc(NS(=O)(=O)c3ccccc3)cc(=O)[nH]2)cc1,-1,-7.6%,-6%,-1%
COC(=O)c1ccccc1S(=O)(=O)NNC(=O)Nc1ccccc1,·,-1.8%,17%,4%
COC(=O)Cc1csc(Nc2ccccc2Cl)n1,3,1.2%,-2%,-59%
CC(C)N(C(=S)NC1CC2CCC1C2)c1ccccc1 (configuration not stated),-2,-2.9%,-2%,-1%
CCc1ccc(NC(=O)CN2C(=O)C(=O)N(Cc3ccccc3)C2=O)cc1,-2,·,·,2%
CC(C)C(=O)OCC(=O)Nc1ccc(N=Nc2ccccc2)cc1,-6,1.1%,0%,-69%
CCOc1ccc2[nH]c3c(NCCOC)ncnc3c2c1,·,-2.5%,-1%,-40%
Cc1nn2c(=O)cc(CSc3ccccc3NC(=O)c3ccccc3)nc2s1,·,-0.2%,1%,-3%
N#Cc1ccc(S(=O)(=O)N2CCN(C(=O)[C@@H]3CCCN3C(=O)c3cccs3)CC2)cc1,·,-0.1%,4%,·
CC1CCCC(NC(=O)c2n[nH]c(=O)c3ccccc23)C1C (configuration not stated),-5,-0.4%,-6%,-32%
CC1(C)CC(=O)C2=C(C1)N(CCN1CCOCC1)C1=C(C(=O)CC(C)(C)C1)C2c1ccc(Cl)cc1,4,?,?,?
C=CCNC(=O)Nc1ccc(F)cc1F,-29,-2.1%,2%,-5%
Cc1ccc(-c2cc3ccccc3nc2N2CCCC2)cc1,1,-0.4%,-8%,-4%
CCC(C)c1ccccc1NC(=O)c1cccc(-n2cnnn2)c1 (configuration not stated),·,0.4%,-16%,·
O=C(c1cc(-c2ccc(Cl)cc2Cl)on1)N1CCCC1,·,0.1%,-6%,-38%
O=C(COC(=O)C12CC3CC(CC(Cl)(C3)C1)C2)N1CCCCC1,·,-3.0%,?,·
CCOCCCNC(=O)Cc1ccc(-n2c(CC)nc3cccnc32)cc1,·,-0.6%,10%,0%
COc1ccc(-c2cc(C(=O)Oc3ccc([N+](=O)[O-])cc3)c3ccccc3n2)cc1,-5,1.5%,-9%,-10%
NCCCC[C@H]1CNC(=O)C(=O)N1CC1CCCCC1,18,0.6%,2%,1%
COc1ccc(C)cc1NC(=O)Cn1cnc2sc(C)c(S(=O)(=O)N3CCOCC3)c2c1=O,-4,-0.1%,1%,-2%

# One compound at a time (already shown). Order of values: GLA inh pH 4.5 | Rango-impB inh | Rango dissoc inh | miR-21 FLuc
# Record of Cc1cc(-c2n[nH]c(=S)n2/N=C/c2ccc(Cl)c([N+](=O)[O-])c2)n[nH]1 : -11 | 5.1% | 2% | 5%
# Record of COc1ccc2c(c1)C(=O)N1[C@H]3c4cc(Cl)ccc4OC[C@@H]3[C@H](c3ccccc3)[C@]1(C)C(=O)N2 : · | -1.0% | -5% | ·
# Record of C#CCOCCOCCOCCNc1nc(N2CCN(C(=O)[C@H](CC(N)=O)n3cc(C(N)[C@@H](C)CC)nn3)CC2)nc(N2CCN(C(=O)[C@H](CCC(=O)O)n3cc([C@@H](N)CCCCN)nn3)CC2)n1 (some centres not stated) : · | 5.2% | -2% | ·
# Record of COc1ccc(C(=O)NNC(=O)c2ccccc2[N+](=O)[O-])cc1[N+](=O)[O-] : 3 | 1.3% | 14% | -4%
# Record of CCOc1ccccc1NC(=O)C1CCCCN1S(=O)(=O)c1ccccc1 (configuration not stated) : · | -1.8% | 1% | ·

# Next entries
SMILES,GLA inh pH 4.5,Rango-impB inh,Rango dissoc inh,miR-21 FLuc
O=C(O)CC12CC3CC(C1)CC(n1ncc(NCc4ccccc4)c(Cl)c1=O)(C3)C2,-9,-0.1%,-2%,0%
CCC(C)NC(=O)C1CCC(CNS(=O)(=O)c2cccc3nsnc23)CC1 (configuration not stated),·,-3.2%,-4%,0%&6%
CCC(CC)c1nnc(NC(=O)CCN2C(=O)c3ccccc3C2=O)s1,-17,4.9%,1%,-4%
N#Cc1ccccc1Sc1ccccc1C(=O)Nc1ccccc1,0,0.3%,-2%,-9%
CCOC(=O)c1sc(NC(=O)/C=C/c2ccc(F)cc2)nc1C,12,0.2%,-6%,-2%
O=C(N/N=C/c1ccco1)c1cc([N+](=O)[O-])cc([N+](=O)[O-])c1,-8,11%,17%,-1%
COc1ccc(C(=O)OCC(=O)c2ccccc2)cc1S(=O)(=O)N1CCOCC1,-1,5.3%,10%,-8%
COc1cc(C(=O)NCC2CCCO2)ccc1OCc1ccc(Cl)cc1 (configuration not stated),·,-1.6%,3%,·
O=C(CNC(=O)c1cccs1)NCC(=O)OCc1ccc(F)cc1,0,-5.5%,7%,-1%
CC(C)(C#N)NC(=O)C1CCCN1S(=O)(=O)c1ccc2ccccc2c1 (configuration not stated),·,-10.0%,-8%,19%
COc1ccc(-c2cc(=O)c3ccccc3n2C)cc1,1,-0.1%,-5%,-5%
CCN(C(=O)COC(=O)c1cnc(C)cn1)C1CCCCC1,1,?,?,-4%
CN(C)CC(C)(C)CNC(=O)c1cc(=O)c2ccccc2o1,-4,3.6%,-1%,-2%
CC1=C(C(=O)OCC(C)C)C(c2ccsc2)C2=C(CCCC2=O)N1 (configuration not stated),1,1.3%,3%,2%
COC(=O)[C@H](CCSC)NC(=O)Nc1ccc(C)cc1,-3,3.2%,1%,-3%
O=S1(=O)CCOCCCN1Cc1ccc(Cl)cc1,·,?,-17%,0%
CCC(=C/c1sc2ccc3ccccc3c2[n+]1C)/C=C1\Sc2ccc3ccccc3c2N1C,·,3.4%,-6%,27%
COc1ccc(Nc2nc(N(C)c3ccccc3)nc(N)c2[N+](=O)[O-])cc1,·,-0.8%,4%,-8%
O=C(CN1C(=O)S/C(=C\C=C\c2ccccc2)C1=O)NC1CCS(=O)(=O)C1 (configuration not stated),·,-0.6%,0%,-33%
Cc1ccc(N(CC(=O)N2CCCCCC2)S(=O)(=O)c2ccccc2)cc1,·,5.0%,?,-3%
COc1ccccc1N1CCN(CCCCNC(=O)c2ccc3ccccc3c2)CC1,-6&3,-0.2%,8%,·
CCN(CC)S(=O)(=O)c1cc(C(=O)Nc2ccccn2)ccc1C,-7,-0.5%,0%,-42%
COc1cccc(CN(C(=O)CN2C(=O)c3ccccc3S2(=O)=O)C(C(=O)NCC2CCCO2)c2ccco2)c1 (configuration not stated),·,-0.8%,8%,1%
Cc1cccc(NC2SC(=O)N(CC(=O)O)C2=O)c1 (configuration not stated),-15,?,-30%,-11%
CC1CCCC(NC(=O)c2cc(S(=O)(=O)N3CCCCC3)ccc2Cl)C1C (configuration not stated),·,-0.4%,-1%,·
COc1cccc(C(=O)NNC(=O)c2ccc3ccccc3c2)c1,·,-1.9%,-1%,·
Cc1ccc2cccc(N)c2n1,0,-1.0%,0%,-2%
CCCN1CCC(NC(=O)CCc2nnc(Cc3cc(OC)ccc3OC)o2)CC1,2,0.0%,3%,0%
COC(=O)[C@]1(C)N[C@H](CN(C)S(=O)(=O)c2ccc(F)cc2)[C@@H]2C(=O)N(C)C(=O)[C@@H]21,·,-1.3%,-10%,·
Cc1cccc(-c2nnc(SCC(=O)O)n2Cc2ccccc2)c1,·,-0.7%,-10%,-18%
CN(C)c1cccc(C(=O)OCC(=O)c2ccc[nH]2)c1,·,0.9%,0%,·
COCCCNC(=O)Cc1ccc(S(=O)(=O)N2CCOCC2)s1,·,-2.2%,-11%,·
O=C(Cc1ccc(S(=O)(=O)N2CCOCC2)s1)Nc1ccccc1Br,3,0.0%,0%,-6%
COc1ccc(S(=O)(=O)NC(C)C(=O)NCc2ccccn2)cc1Cl (configuration not stated),·,-1.9%,19%,0%
CC(=O)N1CCN(c2ccc(S(=O)(=O)N3CCCCC3)cc2[N+](=O)[O-])CC1,·,-1.8%,-1%,·
CCOC(=O)C1=C(O)/C(=C/c2cc(OC)c(O)c(OC)c2)SC1=Nc1ccc(OC)cc1,-12,?,?,-23%
O=C(O)C1CCC(CNCc2ccncc2)CC1 (configuration not stated),·,-1.1%,7%,1%
CCOc1cc(/C=C/C(=O)NCCc2ccc(S(N)(=O)=O)cc2)ccc1OCC(C)C,-5,-2.6%,-1%,10%
COc1ccccc1C(=O)Oc1cc(N)n(S(=O)(=O)c2ccc(C)cc2)n1,1,2.7%,6%,-4%
Cc1cc(=O)oc2ccc(OCc3ccccc3)cc12,·,3.9%,-18%,-1%
O=c1oc(C2(O)CCCCC2)cc2ccccc12,·,-0.2%,1%,·
COc1ccc(/C=N/Nc2cc(C)nc(N3CCOCC3)n2)cc1OC,-7,9.2%,0%,-26%

# Assay outcomes as filed in PubChem.
